TRPV1 PAM: potentiators of human vanilloid receptor 1 (TRPV1); Q8NER1; TRPV1-expressing cells, Fluo-8 calcium influx, capsaicin EC20 potentiation; host cell line not named in the record; control for the full effect not named in the record; potentiation, % at 8.33 µM; 320,000 tested, 0.02% active; active means potentiation above 80%; inconclusive means 30% to 80%; inactive means below 30%; further: 0% is about no effect
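TRPV1-expressing cells were cultured overnight at 35.5C and loaded with Fluo-8 calcium dye for 40 to 90 min at room temperature. After a 10 s baseline, compound was added and calcium influx was read kinetically for 3 min (ex 480/em 520 nm).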
gsp agonist: agonists of gsp mutant (McCune-Albright syndrome) | 340,000 tested, 0.13% active | Potency, µM (doses to about 76.9 µM), for the others: at the top dose activation (cAMP increase), actives largely listed as activators | gsp mutant cells, cAMP HTRF, 30 min; control for the full effect not named in the record; active = well fitted activation curve with a large enough effect; inconclusive = small, poorly fitted or top-dose-only effect, or another doubt; inactive = no such curve, though single readings can be large or run the other way; cell line not stated here;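 further: phosphodiesterase inhibitor Ro 20-1724 added with compounds to block cAMP breakdown; potency means the concentration at half of the fitted maximal effect; nearly all actives have a fitted effect of over 60% in size; about a fifth of the inactives were tested at one dose only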
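Cells in DMEM/10% FBS with G418 were pretreated with compounds in DMSO plus […] (300 uM stock) for 30 min at 37C. cAMP was measured by HTRF (cAMP-d2 plus anti-cAMP antibody-K) after 30 min at room temperature.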
Menin MLL FP FL: displaces fluorescein MLL peptide from human menin; Fluorescence polarization, fluorescein-MLL peptide displacement from menin; FP activity change, % at 61.4 µM; 290,000 tested, under 10 active; AID 1766; inconclusive = falling polarisation curve, or a change in total fluorescence; inactive = total fluorescence flat and polarisation flat or rising; no compound was filed as active; the % refers to the polarisation; negative = inhibition;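 further: % of control where 0% means no effect; inhibitors lower the polarisation; unlabelled MLL peptide was the positive control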
ClpP mod: qHTS Assay for Activators of ClpP; ATP-dependent Clp protease proteolytic subunit (Bacillus subtilis (strain 168)), P80244; purified B. subtilis ClpP, FRET peptide cleavage, 20 min; Potency, µM (series often up to 57.5 µM), inactives show at the highest dose activity change, negative = active; 340,000 tested, 1.9% active; AID 651965, 2013; active = well fitted falling curve with a large enough effect; inconclusive = small, poorly fitted or top-dose-only effect; inactive = no such curve, though single readings can be large or run the other way; further: potency means the concentration at half of the fitted maximal effect; the source files actives as falling curves though it sought activators and does not explain the sign; nearly all actives have a fitted effect of over 65% in size; many hits overshoot -100%
Target sequence (P80244 whole entry, looked up): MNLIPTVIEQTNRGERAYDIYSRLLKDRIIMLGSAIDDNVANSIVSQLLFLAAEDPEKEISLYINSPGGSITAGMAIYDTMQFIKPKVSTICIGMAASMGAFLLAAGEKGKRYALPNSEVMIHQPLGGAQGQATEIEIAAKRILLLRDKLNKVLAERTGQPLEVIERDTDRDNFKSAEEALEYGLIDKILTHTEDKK
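Purified B. subtilis ClpP, 10 microg/mL final in Tris/HCl pH8 with KCl, BSA, glycerol and Tween-20, cleaved an Abz/nitrotyrosine-quenched decapeptide. Fluorescence (ex 320, em 430) was read at 0 and 20 min at room temperature. Delta was normalized to 5.8 microM ADEP and DMSO/no-enzyme controls.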
TRPML1 inh: human mucolipin-1 channel inhibition; Q9GZU1; TRPML1-inducible cells, Ca2+ dye fluorescence, FDSS; active compounds read low; inhibition of EC80 agonist-evoked calcium signal; activity change, negative = inhibition, % (test concentration not listed); 390,000 tested, 0.02% active; AID 624415; in the data active means activity change below about -50%; inconclusive means about -30% to -50%; inactive means above about -30%;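 further: stimulus is agonist 54-4 at its EC80 concentration; on the % scale 0 is the no-effect control and ±100 the full control effect; compound concentration not given in the record; the text of the record puts the active cut at -80%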
Target sequence (Q9GZU1 whole entry, looked up): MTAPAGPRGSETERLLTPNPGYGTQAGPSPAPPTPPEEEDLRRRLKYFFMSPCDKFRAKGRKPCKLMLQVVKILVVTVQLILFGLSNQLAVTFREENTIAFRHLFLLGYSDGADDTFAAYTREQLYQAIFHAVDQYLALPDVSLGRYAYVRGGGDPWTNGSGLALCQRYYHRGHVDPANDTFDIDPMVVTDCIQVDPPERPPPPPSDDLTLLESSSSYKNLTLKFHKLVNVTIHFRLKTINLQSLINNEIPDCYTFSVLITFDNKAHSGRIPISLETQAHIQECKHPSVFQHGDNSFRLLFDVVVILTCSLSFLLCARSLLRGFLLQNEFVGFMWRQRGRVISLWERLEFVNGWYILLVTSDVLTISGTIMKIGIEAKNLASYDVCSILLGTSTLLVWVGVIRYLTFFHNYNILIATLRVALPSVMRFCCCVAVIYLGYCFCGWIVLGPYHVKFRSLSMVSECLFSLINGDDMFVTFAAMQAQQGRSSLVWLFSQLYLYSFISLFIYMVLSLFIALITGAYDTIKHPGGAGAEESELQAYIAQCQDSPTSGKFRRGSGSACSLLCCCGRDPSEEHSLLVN
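TRPML1-DL cells, Tet-induced overnight (~16 h, 37 °C) at 1,500 cells/well, were loaded with Ca8 no-wash dye plus quencher for 45-90 min at room temperature. Compounds were pinned during FDSS kinetic reading; agonist 54-4 at EC80 (4 uM final) then added.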
gsp antag: antagonists of gsp mutant (McCune-Albright syndrome). gsp-mutant cells, cAMP HTRF, 30 min; control for the full effect not named in the record. Potency, µM (titrated, usually from 76.9 µM), for the others: at the top dose activity change, negative = inhibition, actives largely listed as inhibitors. 340,000 tested, 0.4% active; active = falling curve of any shape with a large fitted effect; inconclusive = falling curve, mostly with a smaller effect; inactive = flat or rising curve; cell line not stated here;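 further: intracellular cAMP measured with PDE inhibitor Ro 20-1724 present during compound exposure; potency means the concentration at half of the fitted maximal effect; on the % scale 0 is the no-effect control and ±100 the full control effect; nearly all actives have a fitted effect of over 65% in size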
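Cells, 2000/well, grown 16–24 h in DMEM 10% FBS with 0.5 mg/ml G418, then compounds plus […] (300 uM addition stock), 30 min at 37C. cAMP read by HTRF (cAMP-d2 and anti-cAMP antibody-K in lysis buffer) after 30 min RT.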
Sfp PPTase inh: Sfp phosphopantetheinyl transferase inhibition | Biochemical Sfp PPTase activity, qHTS | Q9F4F7 | 310,000 tested, 3.5% active | Potency, µM, for inactives: max response, negative = inhibition, actives largely listed as inhibitors | AID 1490; active means well fitted inhibition curve with a large enough effect; inconclusive means small, poorly fitted or top-dose-only effect, or another doubt; inactive means no such curve, though single readings can be large or run the other way;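 further: the enzyme is Sfp with the accession as filed and its product quenches rhodamine fluorescence; potency means the concentration at half of the fitted maximal effect; 0% = enzyme reaction without inhibitor and -100% = no enzyme wells; top concentration of the series not given in the record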
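Fluorescence-quenching assay: 15 nM Sfp-PPTase preincubated 15 min at room temperature with compound, then 5 uM rhodamine-CoA and 12.5 uM BHQ-2-labelled YbbR peptide added. Fluorescence (ex 525/em 598 nm) read at start and after 30 min; difference gives rate.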
Active calls of the source: *; ? = inconclusive; nt = not tested or not shown; [ ] = dose if it differs, or a comment.

SMILES	TRPV1 PAM	gsp agonist	Menin MLL FP FL	ClpP mod	TRPML1 inh	gsp antag	Sfp PPTase inh
CCC(C)N1C(=O)S/C(=C/c2ccc3c(c2)n(C)c(=O)n3C)C1=O (centres undefined)	-16	14%[15.4 µM]	-5.5	nt	14	-13%	0%
COC(=O)C(C)n1cnc2c(nnn2Cc2ccc(Cl)cc2)c1=O (centres undefined)	-4	-19%	0.9	3.3%	16	4%	15%
CC(Oc1cc2oc(=O)c3c(c2cc1Cl)CCCC3)C(=O)NCc1cccnc1 (centres undefined)	0	5%	-2.1	-18%	2	5%	0%
O=C(NCCCN1CCCC1)c1cc2c(Cl)nc3ccccc3c2s1	0	?	-5.7	nt	-11	7%	-9%
CC1(C)Cc2cccc(OCC(=O)NCc3ccc(F)cc3)c2O1	3	-19%	nt	0.3%	10	-42%	nt
C/C(=N/NC(=O)CN1CCN(S(=O)(=O)c2ccc(Br)cc2)CC1)c1cccnc1	-2	-18%	-1.4	0.4%	-7	-1%	24%
COc1ccc(NC(=S)N/N=C2/CCCc3c(C)cc(C)cc32)cc1	3	-1%	1.2	-0.9%	-4	13%	26%
CSCCC(C(=O)OCC(=O)c1ccc(C)c(C)c1)N1C(=O)c2ccccc2C1=O (centres undefined)	4	6%	0.7	-2.8%	-9	0%	12%
COc1cc(C(=O)NC(=S)Nc2ccccc2N2CCOCC2)cc(OC)c1OC	0	?	nt	3.2%	3	17%	35µM*
O=C(OCC(=O)c1c[nH]c2ccccc12)c1cncc(Br)c1	nt	?	nt	-2.5%	-9	-5%	nt
COc1ccc(N(C)S(=O)(=O)c2cccc(C(=O)Nc3ccc(OC)nc3)c2)cc1	7	nt	-0.9	nt	nt	nt	16%
Nc1nonc1-n1nnc(C(=O)N/N=C/c2cccc(Cl)c2)c1-c1ccc2c(c1)OCO2	-13	?	nt	?	0	?	15%
COc1c(C)cc(NC(=O)c2ccc3c(c2)NC(=O)CO3)cc1C	-26	-16%[15.4 µM]	-1.2	nt	35	3%	11%
Cc1ccc(-c2nn(CC(=O)N3CCOCC3)c(=O)c3ccccc23)cc1S(=O)(=O)N(C)C	-7	17%	-0.7	-8.0%	0	6%	19%
Cc1ccc(NC(=O)c2ccc3snnc3c2)cc1	-3	9%	-8.7	nt	7	-3%	2%
CC(=O)c1cc2c(cc1NS(=O)(=O)c1ccccc1C)OCO2	10	nt	4.3	nt	nt	nt	-5%
Cc1ccc(S(=O)(=O)n2cc(-c3ccccc3)c3ccccc32)cc1	17	-12%	nt	-0.7%	20	13%	nt
Cc1sc(NC(=O)C(C)C)c(C(=O)Nc2ccccc2)c1C	2	-52%[inhibitor]	-3.3	0.2%	-5	5%	3%
CCOc1ccc(NC(=O)CNC(=O)c2cccs2)cc1	5	2%	0.0	-2.7%	1	5%	15%
Cc1ccc(S(=O)(=O)C2(C(=O)Nc3cccc(F)c3)CC2)cc1	2	0%	0.9	-1.7%	5	-7%	15%
COc1cc(C2C(C#N)=C(N)N(Nc3ccccc3)C3=C2C(=O)CC(C)(C)C3)ccc1OCc1cccc(F)c1 (centres undefined)	3	-12%	2.9	-7.6%	-16	-16%	16%
COc1ccc(N2CCN(C(=O)CSc3nnc4n3C(C)(C)Cc3ccccc3-4)CC2)cc1	-3	-3%	2.2	-0.1%	-8	?	-11%
CCN(CC)S(=O)(=O)c1cccc(C(=O)Nc2cccc(C)c2)c1	-16	-29%	1.6	0.8%	5	-14%	1%
CCC(C)N(C(=O)COC(=O)CSc1ccc([N+](=O)[O-])cc1)C1CCS(=O)(=O)C1 (centres undefined)	0	-15%[15.4 µM]	nt	-0.3%	-2	-7%	-11%
COC(=O)c1cc(C(=O)OCC(=O)NCc2ccc3c(c2)OCO3)cc([N+](=O)[O-])c1	2	-4%	3.7	-3.2%	-1	12%	5%

Further compounds
SMILES	TRPV1 PAM	gsp agonist	Menin MLL FP FL	ClpP mod	TRPML1 inh	gsp antag	Sfp PPTase inh
CCCCC1N2CC3([N+](=O)[O-])CN1CC([N+](=O)[O-])(C2)C3(C)C (centres undefined)	2	1%	0.8	-2.6%	16	8%	4%
CCN1C[C@@H]2[C@@H]3C(=O)N(Cc4ccccc4)C(=O)[C@@H]3[C@](Cc3ccccc3)(C(=O)OC)N2C1=NC	nt	nt	nt	0.6%	-5	2%	nt
O=C(Nc1cc(S(=O)(=O)N2CCCCC2)ccc1N1CCOCC1)c1ccc(F)cc1	-3	?	nt	0.9%	-1	-23%	nt
O=C(Oc1cccc2cccnc12)c1ccco1	22	-41%[inhibitor]	0.2	1.4%	7	12%	-22%
CC(=O)C1=C(C)NC(=O)NC1c1ccccc1OCC(=O)NCCc1ccccc1 (centres undefined)	-4	-34%[inhibitor]	1.5	0.4%	-4	-4%	12%
O=C(Oc1ccccc1F)c1ccc2c(=O)n3c(nc2c1)CCC3	-27	-3%[15.4 µM]	nt	nt	-12	-13%	nt
Cc1cc(C)cc(NC(=O)CCN2C(=O)c3ccccc3C2=O)c1	5	-38%[inhibitor][15.4 µM]	-0.8	nt	-2	-3%	-11%
CCOC(=O)c1ccccc1NC(=O)COC(=O)C1CCN(S(=O)(=O)c2ccccc2C(=O)OC)CC1	-7	3%	nt	-17%	0	-13%	nt
COc1ccc2nc(NCCO)[nH]c2c1	-2	-13%	-7.9	-2.1%	6	-13%	16%
CN(CCC1CCOCC1)C(=O)CC1C(=O)NCCN1Cc1ccccc1F (centres undefined)	5	6%	-9.3	?	27	-3%	3%
CN1CCc2c1nc1ccccc1c2NC(=O)CN1CCCC1	-7	-29%	2.6	nt	2	-2%	-21%
Cc1ccc(C(=O)N2CCN(c3ccc([N+](=O)[O-])c(N4CCOCC4)c3)CC2)cc1	0	-5%[15.4 µM]	2.9	-26%	19	?	-1%
COc1ccc(C(=O)C=Cc2ccc(OCc3ccccc3)c(OC)c2)cc1OC	nt	9%	nt	-21%	35	nt	nt
Cc1ccc(NC(=O)C2CCCC2)cc1Cl	nt	-2%	nt	nt	4	3%	nt
CC1CCN(c2ccc([N+](=O)[O-])cn2)CC1	-5	-2%[15.4 µM]	2.6	-0.1%	3	10%	2%
Cn1c(SCC(=O)Nc2cc(Cl)cc(Cl)c2)nnc1-c1ccc2nonc2c1	-11	2%[15.4 µM]	2.7	nt	5	7%	6%
CSCC[C@H](NC(=O)OC(C)(C)C)c1nnc(SCc2cccc(F)c2)o1	-27	9%	-0.5	-15%	0	5%	-8%
CCOC(=O)N1CCN(C(=O)COc2ccc3ccccc3c2Br)CC1	7	?	nt	-2.6%	-8	-5%	-5%
CC(C)(C)c1ccc(C(=O)Nc2ccc3c(c2)C(=O)NC3=O)cc1	-11	19%	-0.7	4.2%	-5	7%	2%
O=C(Nc1ccccc1-c1nnn(CC(=O)N2CCCc3ccccc32)n1)c1ccco1	-6	23%	3.0	?	49	-10%	4%
O=C(Cn1c(-c2ccccc2Cl)nc2ccccc21)Nc1cccc(Cl)c1	-7	-10%[15.4 µM]	5.8	0.7%	16	11%	32%
CCOc1ccc(NC(=O)CCCn2nc(C)c3c(C)n(-c4ccccc4)nc3c2=O)cc1	6	17%	nt	-0.3%	-28	-4%	10%
O=C(Cn1c2c(c(-c3ccccc3Cl)cc1=O)CCC2)NCCCN1CCOCC1	-1	-7%[15.4 µM]	2.4	nt	11	12%	9%
Cc1ccccc1NC(=S)NCc1ccc2c(c1)cc(C)n2C	-12	-26%	0.5	-13%	15	5%	-2%
CC1CCCC(NC(=O)CCN2C(=O)COc3ccccc32)C1C (centres undefined)	nt	-34%[inhibitor]	nt	-1.1%	-1	nt	nt

(continued)
SMILES	TRPV1 PAM	gsp agonist	Menin MLL FP FL	ClpP mod	TRPML1 inh	gsp antag	Sfp PPTase inh
Cc1ccc(NC(=O)c2ccc(OC(F)(F)F)cc2)cc1S(=O)(=O)N(C)C	-7	19%	5.7	-1.0%	2	-21%	14%
O=C(Cc1sc(-c2ccccc2)nc1-c1ccccc1)Nc1ccc(Cl)cc1	0	0%	6.6	-6.9%	-19	-8%	9%
Cc1ccc(C(=O)N2NC(c3ccccc3F)C3C(=O)N(c4cccc(C)c4)C(=O)C32)cc1 (centres undefined)	-33	-9%	2.2	-15%	-19	-7%	11%
Cc1ccc(S(=O)(=O)NC(N)=NCCc2ccc(Cl)cc2)cc1	-1	0%	9.2	1.2%	-3	-3%	8%
COc1ccc(-n2c(SCC(=O)Nc3cccc(S(N)(=O)=O)c3)nc3ccccc3c2=O)cc1OC	-1	-8%[15.4 µM]	6.9	nt	14	-12%	6%
COc1cccc(-c2ccc(NC(=O)C3CCCN(Cc4ccccn4)C3)cc2)c1 (centres undefined)	nt	-11%	nt	-1.1%	-6	nt	nt
COc1ccccc1/C=C1/SC(=S)N(C(C)C(=O)NC2C=CS(=O)(=O)C2)C1=O (centres undefined)	-11	-3%	nt	-0.2%	6	5%	-7%
COC(=O)[C@H]1C[C@@H](c2ccccc2)[C@H](C)C1(C)C	9	nt	nt	0.3%	-8	8%	nt
COc1ccc(Cl)cc1NC(=O)CSc1nnc(-c2ccncc2)n1CC1CCCO1 (centres undefined)	0	8%	-0.9	1.5%	-8	-7%	8%
Cc1ccn(S(=O)(=O)c2ccc(C(C)(C)C)cc2)n1	-16	24%	0.5	0.8%	1	-6%	-7%
CCc1ccc(S(=O)(=O)N/N=C(/C)c2ccncc2)cc1	5	-31%	nt	-0.4%	-4	0%	7%
Cc1[nH]n(-c2ccccc2)c(=O)c1N=Nc1c(Cl)cccc1Cl	21	-28%	-5.2	1.8%	nt	-11%	24%
COc1ccc(-c2cc(N3C(=O)Nc4ccccc4N3O)n[nH]2)c(OC)c1	13	?	-7.4	0.6%	2	?	6%
CCCCn1c(N)c(N(CCC(C)C)C(=O)C2CSC3(C)CCC(=O)N23)c(=O)[nH]c1=O (centres undefined)	0	-8%[15.4 µM]	nt	-1.0%	-16	5%	nt
CCC(=O)Nc1ccc(Cl)c(NC(=S)NC(=O)c2ccco2)c1	-1	16%	1.8	-0.8%	-2	-10%	-12%
COc1ccc(Cl)cc1C(=O)OCC(=O)c1ccc[nH]1	7	-43%	nt	-9.6%	10	-2%	nt

Source: PubChem
